Source: PubChem
Mtb H37Rv – Mycobacterium tuberculosis H37Rv growth inhibition, putative kinase inhibitor library, confirmatory dose response (AID 2842); M. tuberculosis H37Rv growth inhibition; higher % means a stronger effect; some inactives read as strong as hits; inhibition, % at 10 µg/mL; hits with a dose series show IC90 in µg/mL; 5.2% of 24,000 active;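 active = confirmed in a dose series; about a fifth of its hits are not listed in these tables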;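 note: bacteria incubated one week before Alamar blue readout; 0% = bacteria only wells and 100% = bacteria with high antibiotic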
* = called active by the depositor.

The opening 5 compounds as a preview:
| compound | Mtb H37Rv |
| --- | --- |
| COc1cccc(N2CC(NC(=O)NCc3cccs3)CC2=O)c1 (stereo not drawn) | -6.1% |
| CC(C)(C)NC(=O)Nc1nnc(SCC(=O)NCc2ccc(F)cc2)s1 | -13.7% |
| Oc1ccc(O)c(C2=NN3C(C2)c2cc(Cl)ccc2OC3c2ccncc2)c1 (stereo not drawn) | 0.8% |
| CC(C)Cn1c2c(c(=O)[nH]c1=O)C(c1ccccc1)C1=C(COC1=O)N2 (stereo not drawn) | -0.2% |
| CCOc1ccc(N2CC(NC(=O)Nc3nc(C)cs3)CC2=O)cc1 (stereo not drawn) | 9.8% |

Main list, repeating the preview:
| compound | Mtb H37Rv |
| --- | --- |
| COc1cccc(N2CC(NC(=O)NCc3cccs3)CC2=O)c1 (stereo not drawn) | -6.1% |
| CC(C)(C)NC(=O)Nc1nnc(SCC(=O)NCc2ccc(F)cc2)s1 | -13.7% |
| Oc1ccc(O)c(C2=NN3C(C2)c2cc(Cl)ccc2OC3c2ccncc2)c1 (stereo not drawn) | 0.8% |
| CC(C)Cn1c2c(c(=O)[nH]c1=O)C(c1ccccc1)C1=C(COC1=O)N2 (stereo not drawn) | -0.2% |
| CCOc1ccc(N2CC(NC(=O)Nc3nc(C)cs3)CC2=O)cc1 (stereo not drawn) | 9.8% |
| Cc1cc(Cl)ccc1Nc1nc(N2CCN(c3ccc(F)cc3)CC2)nc2nccnc12 | -14.9% |
| Fc1ccc(CSc2ccc3nnc(-c4ccccn4)n3n2)cc1 | 8.6% |
| COc1ccc2c(c1)c(=O)c(C(=O)c1ccccc1)cn2Cc1ccccc1OC | 14.4% |
| CCCCOc1ccc(C(=O)Nc2nnc(-c3ccco3)o2)cc1 | 0.8µg/mL* |
| CC(C)c1nnc(NC(=O)COc2ccc3ccccc3c2)s1 | 4.3% |
| CCN1C(=O)c2cccc3c(NC(=O)c4ccc5nc(C)sc5c4)ccc1c23 | 1.2% |
| CN1CCc2c(sc(NC(=O)c3ccc([N+](=O)[O-])o3)c2C(N)=O)C1 | 10.5µg/mL* |
| CCCSc1nc2c(c(=O)[nH]1)C(c1ccc(Br)cc1)C1=C(CCCC1=O)N2 (stereo not drawn) | 27.7% |
| Nc1ncnc(Nc2ccc3c(c2)OCCO3)c1[N+](=O)[O-] | 1.1% |
| CCCc1nnc(SCc2c(Cl)ccc(Cl)c2Cl)n1N | 10.3% |
| O=C(Nc1ccccc1-c1nc2ccccc2[nH]1)c1cccc(Br)c1 | 23.0% |
| Cc1ccccc1NC(=O)C(=O)NCC1COC2(CCCC2)O1 (stereo not drawn) | -5.6% |
| Cc1ccccc1C(=O)Oc1cc(N)n(S(=O)(=O)c2ccccc2)n1 | -6.0% |
| O=C(CSc1nnc2[nH]c(=O)ccn12)Nc1ccc(Cl)cc1 | -2.0% |
| O=c1[nH]cc(S(=O)(=O)Nc2ccc(F)c(F)c2)c(=O)[nH]1 | -1.8% |
| O=C1OCCC1Sc1nc2ccccc2c(=O)[nH]1 (stereo not drawn) | -15.8% |
| CC1=C(C(=O)Nc2ccccc2C)C(c2ccc(C)o2)n2c(s/c(=C/c3ccc(O)cc3)c2=O)=N1 (stereo not drawn) | -6.4% |
| COc1ccc2nc(-c3ccc(C)c(NC(=O)c4ccc(C(F)(F)F)cc4)c3)cn2n1 | -11.9% |
| CCCc1cc(=O)[nH]c2nnc(SCc3ccccc3Cl)n12 | -5.0% |
| CC(C)NC(=O)C(=O)Nc1cc2c3c(c1)CCC(=O)N3CCC2 | 14.9% |
| O=C1NC(=S)NC(=O)C1=Cc1ccc(-c2cc(Cl)ccc2Cl)o1 | -3.9% |
| Cc1cc(NC(=O)CN2C(=O)CC(c3ccccc3)S(=O)(=O)c3ccccc32)no1 (stereo not drawn) | -3.1% |
| Fc1ccc2nc(Nc3nc4c(F)cccc4s3)sc2c1 | 65.7% |
| CC(=O)N1CCc2cc(S(=O)(=O)NCCn3nc(-c4ccc(F)cc4)ccc3=O)ccc21 | -3.7% |
| CCc1nnc(NC(=O)CSc2nc3c(c(=O)n2-c2ccccc2)SCC3)s1 | 1.5% |
| CCOc1cccc2c1OC(c1cccnc1)N1N=C(c3cccc(O)c3)CC21 (stereo not drawn) | -10.5% |
| CCOc1ccc(N2C(=O)N(Cc3cccc(C#N)c3)c3ccccc3S2(=O)=O)cc1 | 0.1% |
| CCOC(=O)c1oc2ccccc2c1NC(=O)COc1ccccc1OC | 2.8% |
| CS(=O)(=O)c1ccc2nc(NC(=O)c3ccccc3[N+](=O)[O-])sc2c1 | -7.0% |
| O=C1NC2=C(C(=O)N(Cc3ccc(F)cc3)C2)C(c2ccc([N+](=O)[O-])cc2)N1 (stereo not drawn) | -17.9% |
| COC(=O)CSC(C)C(=O)Nc1nnc(C)s1 (stereo not drawn) | -4.0% |
| CC(=O)Cn1cnc2c(nnn2-c2ccc(Cl)cc2)c1=O | -9.8% |
| COc1cccc(N2CC(NC(=O)NCc3ccccn3)CC2=O)c1 (stereo not drawn) | 0.2% |
| Cc1cccc(-n2nnc3c(=O)n(CC(=O)N4CCCc5ccccc54)cnc32)c1 | -5.7% |
| COc1cc(/C=C2/SC(=S)N(NC(=O)c3ccccc3OC)C2=O)ccc1O | -3.4% |
| Nc1nc(SCC(=O)Nc2cccc(C(F)(F)F)c2)[nH]c(=O)c1NC(=O)c1ccc(Br)o1 | -8.0% |
| O=C(CCN1C(=O)/C(=C/c2ccccc2F)SC1=S)Nc1ccccc1C(=O)O | 8.3% |
| CN1C(=O)S/C(=C\C(=O)O)C1=O | 1.3% |
| CN(C(=O)Cn1cnc2ccccc21)c1ccccc1 | -5.8% |
| O=C(CSc1nc2c(c(=O)n1-c1ccc(Cl)cc1)SCC2)N1CCc2ccccc21 | 28.6% |
| NC(=O)c1oc2ccccc2c1NC(=O)COc1ccc(Cl)cc1Cl | 4.6% |
| Cc1cc(Oc2coc3cc(OCC(=O)N4CCCCC4)ccc3c2=O)cc(C)c1Cl | 7.7% |
| CCOc1ccc(S(=O)(=O)c2cn(Cc3ccccc3C)c3ccc(F)cc3c2=O)cc1 | -8.7% |
| COc1cccc(C(=O)Nc2nc3c(cc4c5c(cccc53)CC4)s2)c1 | 9.0% |
| COc1ccc(C(=O)Nc2sc3c(c2C#N)CC(C)(C)NC3(C)C)cc1 | -5.2% |
| CCc1nnc(NC(=O)CSc2ncnc3c2cnn3-c2ccc(C)cc2C)s1 | -4.4% |
| O=C(Nc1c2c(nn1-c1cccc(Cl)c1)CS(=O)C2)c1cccc(F)c1 (stereo not drawn) | 3.8% |
| O=C(CN1C(=O)/C(=C\c2cccs2)SC1=S)Nc1cc([N+](=O)[O-])ccc1O | -4.0% |
| Cc1cc(Nc2ccccc2)n(C(=O)c2ccc([N+](=O)[O-])cc2)n1 | -0.9% |
| Cc1cccc(NC(=O)C(=O)Nc2cc3c4c(c2)CCN4C(=O)CC3)c1 | 8.6% |
| CCOc1ccc(S(=O)(=O)c2cn(Cc3cccc(C)c3)c3ccc(F)cc3c2=O)cc1 | 1.9% |
| CCCCCCc1cc(C(=O)Cc2cnn(-c3ccccc3)c2)c(O)cc1O | -7.1% |
| CC1CCc2sc(NC(=O)c3c(F)cccc3F)c(C(N)=O)c2C1 (stereo not drawn) | 66.7% |
| CC1(C)Cc2c(sc(NC(=O)COc3ccc(Cl)cc3Cl)c2C(N)=O)C(C)(C)N1 | 13.0% |
| CCOCCn1c(SCC(N)=O)nc2c1c(=O)[nH]c(=O)n2C | -13.5% |

The list continues.
| compound | Mtb H37Rv |
| --- | --- |
| COc1cccc(NC(=O)C(=O)NCC2COC3(CCCC3)O2)c1 (stereo not drawn) | -14.9% |
| CCS(=O)(=O)Nc1cccc(C2=NN(S(C)(=O)=O)C(c3ccc(C)cc3)C2)c1 (stereo not drawn) | -4.0% |
| O=C(c1ccc(F)cc1)c1ccc(CSc2nnc3sc4ccccc4n23)cc1 | 13.6% |
| CC(=O)Nc1ccc(N=C(C#N)C2=C(O)c3ccccc3C2=O)cc1 | -3.5% |
| CCC(=O)Nc1nnc(-c2cccc(OC)c2)o1 | 8.6% |
| Cc1ccc(C)c(-n2c(C)c(C)n3c4c(=O)n(CCN5CCCCC5)c(=O)n(C)c4nc23)c1 | -6.5% |
| CCC(Sc1nncn1C)C(=O)Nc1nnc(-c2ccc(OC)cc2)s1 (stereo not drawn) | 1.8% |
| COC(=O)c1ccc(C(=O)Nc2nc3ccc4nc(SC)sc4c3s2)cc1 | -7.7% |
| O=C(Nc1nnc(-c2ccc3c(c2)OCCO3)o1)c1ccccc1Oc1ccccc1 | 3.77µg/mL* |
| O=C1C(=O)N(CCCOc2ccccc2)c2ccccc21 | 84.7% |
| CCC(C(=O)NCCc1cc2c(OC)ccc(OC)c2[nH]c1=O)c1ccccc1 (stereo not drawn) | 96.5% |
| O=C(OCc1nc2ccccc2s1)c1ccc(F)cc1 | 15.4µg/mL* |
| COc1cccc(NC(=O)CSc2ccc3nnc(-c4cccnc4)n3n2)c1 | -9.8% |
| CCOCC(=O)Nc1c(C(=O)Nc2cccc(Cl)c2)oc2ccccc12 | 12.1% |
| COc1ccc(-c2nnc(NC(=O)CSc3ccc(Cl)cc3)s2)cc1 | -14.9% |
| Cc1cc(=O)[nH]c2c(C)cc(S(=O)(=O)NCc3ccco3)cc12 | -15.4% |
| COc1cccc(-c2nnc(NC(=O)c3cc4cc([N+](=O)[O-])ccc4s3)o2)c1 | -2.3% |
| NC(=O)c1ccsc1NC(=O)c1cccs1 | 17.4% |
| COCCn1c(=NC(=O)COc2ccccc2)sc2cc(NC(C)=O)ccc21 | -12.2% |
| Cc1cn2c3c(=O)n(CCN4CCOCC4)c(=O)n(C)c3nc2n1-c1ccc(C(F)(F)F)cc1 | -1.8% |
| O=C(CSc1ccc2nnc(-c3ccncc3)n2n1)Nc1ccc2c(c1)OCO2 | -9.8% |
| CCOc1ccc(NS(=O)(=O)c2ccc3[nH]c(=O)[nH]c3c2)cc1 | -17.1% |
| Cc1ccc(OCC(=O)Nc2nnc(C(C)C)s2)c(Br)c1 | -15.2% |
| Cc1ccc(C(=O)Nc2ccc(-c3nc4ccc(C)cc4s3)cc2)cc1 | 12.6% |
| COc1ccc(OC)c2[nH]c(=O)c(CCNC(=S)Nc3cccc(F)c3)cc12 | 3.0% |
| COc1ccccc1-c1nnc(NC(=O)CSc2nncn2C)s1 | 7.8% |
| O=C(NCc1ccc2c(c1)OCO2)c1ccc(S(=O)(=O)NCC2CCCO2)cc1 (stereo not drawn) | 2.9% |
| CCOc1ccc(Nc2nc3c(C)cccn3c(=O)c2C=O)cc1 | -2.3% |
| COc1ccc2cc(CCNC(=O)c3ccc(S(=O)(=O)N(C)C)cc3)c(=O)[nH]c2c1 | -0.9% |
| COc1ccc(CCC(=O)Nc2c(C(=O)Nc3cc(OC)ccc3OC)oc3ccccc23)cc1 | -0.6% |
| O=C(/C=C/c1ccccc1)Nc1nc2ccc(Cl)cc2s1 | 0.9% |
| COc1ccc(NC(=O)CSc2ccc3nnc(-c4cccs4)n3n2)cc1 | -5.0% |
| CCOc1ccc(NCCCn2c(C)cn3c4c(=O)[nH]c(=O)n(C)c4nc23)cc1 | 20.5µg/mL* |
| CCn1c(SCC(N)=O)nc2c(c1=O)SC(C)C2 (stereo not drawn) | -10.4% |
| CCOC(=O)c1nn(-c2ccc(Cl)cc2)c(=O)c2c(NC(=O)Cc3ccc(OCC)cc3)scc12 | -3.8% |
| CCOc1ccc2c(c1)c(=O)c(S(=O)(=O)c1ccc(F)cc1)cn2Cc1cccc(OC)c1 | 17.2% |
| Cc1sc2nc(SCC(=O)NC3CCCCC3)nc(N)c2c1C | -8.0% |
| COc1ccccc1NC(=O)C(=O)Nc1cc2c3c(c1)CCC(=O)N3CCC2 | 38.2% |
| O=C(Cn1cnc2ccccc21)Nc1ccccc1 | -3.0% |
| CCN1CCN(c2nc3c(c(=O)[nH]c(=O)n3C)n2Cc2ccc(Br)cc2)CC1 | -9.8% |
| COc1ccc2nc(-c3ccc(NC(=O)c4ccccc4OC)cc3)cn2n1 | -6.6% |
| CCOC(=O)c1nn(-c2ccc(OC)cc2)c(=O)c2c(NC(=O)C3CCCCC3)scc12 | 1.9% |
| NC(=O)c1nc(-c2ccccc2)nc2c1[nH]c(=O)n2-c1ccc(F)cc1 | -4.8% |
| Cc1nc2sc(C(c3ccco3)N3CCN(C(=O)c4ccco4)CC3)c(O)n2n1 (stereo not drawn) | -3.0% |
| COc1cccc(-c2nnc(Nc3nc4cc5c(cc4s3)OCO5)o2)c1 | 3.1% |
| COc1ccc(C(=O)NCCc2cc3c(C)ccc(C)c3[nH]c2=O)c(OC)c1 | -6.4% |
| COc1ccccc1N1CCN(c2ncnc(N)c2[N+](=O)[O-])CC1 | -2.1% |
| CC1CCc2nc(NC(=O)c3ccc(OC(C)C)cc3)sc2C1 (stereo not drawn) | 0.6% |
| COc1ccc(N2CCN(C(=O)C3CCC(Cn4c(=O)[nH]c5ccsc5c4=O)CC3)CC2)cc1 (stereo not drawn) | 33.6% |
| O=C1NC(=O)C(=Cc2ccc(Sc3ccc(Cl)cc3)c([N+](=O)[O-])c2)C(=O)N1 | 6.5% |
| Cc1ccc(C(=O)Oc2coc(CSc3ncccn3)cc2=O)cc1 | -5.8% |
| O=C1CCc2cc(S(=O)(=O)Nc3ccc(F)c(Cl)c3)cc3c2N1CCC3 | 4.8% |
| CCS(=O)(=O)c1ccc(C(=O)N=c2sc3c(C)ccc(OC)c3n2C)cc1 | -4.7% |
| Cc1cc(=O)[nH]c2c(C)cc(S(=O)(=O)Nc3ccc(O)cc3)cc12 | -18.5% |
| COc1ccc(C(=O)Nc2nnc(-c3ccc(Cl)cc3Cl)s2)cc1 | -7.6% |
| CC1CCc2c(sc(NC(=O)Oc3ccccc3)c2C(N)=O)C1 (stereo not drawn) | -4.6% |
| O=C1C2ON(c3ccccc3)C(c3ccc(F)cc3)C2C(=O)N1c1ccc([N+](=O)[O-])cc1 (stereo not drawn) | -10.1% |
| Cc1ccc2cc(CCN3C(=O)c4ccccc4C3=O)c(=O)[nH]c2c1C | 0.8% |

Some of the entries so far, field by field.
COc1cccc(-c2nnc(Nc3nc4cc5c(cc4s3)OCO5)o2)c1
  Mtb H37Rv = 3.1%

COc1ccc(C(=O)NCCc2cc3c(C)ccc(C)c3[nH]c2=O)c(OC)c1
  Mtb H37Rv = -6.4%

Only part of the results is shown, so the mix of outcomes need not match the whole.
